# RanGTP-Impb inh: disruptors of Ran-importin-beta complex formation – biochemical, FRET, CFP-Ran, YFP-importin-beta, homogeneous, primary screen; 300,000 tested, 1.1% active; AID 2216; cell-free CFP-Ran/YFP-importin-beta FRET ratio; inhibition, % (concentration not given with the values);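 active means most replicates above 15%; inconclusive means exactly half above 15%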;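 further: 0% = DMSO wells and 100% = Ran loaded with GDP instead of GTP; wells of about 40 µL received 100 nL stock; the first replicate is given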
# T cruzi repl: T. cruzi replication inhibition | T. cruzi beta-gal in NIH3T3, luminescence, 90 h | inhibition, % (concentration not given with the values) | 300,000 tested, 1.4% active;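 active means mean inhibition across valid replicates above about 55%, limit read from the data; inconclusive means mean below that limit but half or more replicates reach it; inactive means mean below it, under half of replicates reach it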;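 further: signal also drops with host cell toxicity which is not excluded here; 0% = plate median of DMSO wells and 100% = zero luminescence signal; higher percent means less beta-gal luminescence so fewer parasites; stock transfer was 50 nL into about 50 µL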
# Beta apoptosis: blocks beta cell apoptosis. INS-1E cytokine-induced death, ATP luminescence, 48 h; percent of positive-control rescue, neutral wells zero. protection from apoptosis, % (test concentration not listed). 300,000 tested, 0.8% active;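 active means all replicates at 75% or more, or half of them and the mean; inconclusive means half reach 75% but not the mean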;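 further: 0% = cytokine-treated negative control wells and 100% = positive control rescue; higher means more ATP so stronger rescue from cytokine killing; wells of about 40 µL received 100 nL stock; the first replicate is given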
# MLL AF4-AF9 inh: MLL-AF4/AF9 protein interaction inhibition; P42568; AlphaScreen, biotin-AF4 peptide binding to FLAG-AF9; inhibition, % at 10 µM; 350,000 tested, 0.47% active; AID 651704;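 active means every replicate reaching a set inhibition limit, whatever the replicate mean, cut at about 25% in these data; inconclusive means mean inhibition reaches that limit but some replicates miss it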;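 further: 0% = plate neutral control median and 100% = total signal loss; the record names both 10 and 1 µM as test concentration; the first replicate is given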
# Target sequence (P42568 whole entry, looked up): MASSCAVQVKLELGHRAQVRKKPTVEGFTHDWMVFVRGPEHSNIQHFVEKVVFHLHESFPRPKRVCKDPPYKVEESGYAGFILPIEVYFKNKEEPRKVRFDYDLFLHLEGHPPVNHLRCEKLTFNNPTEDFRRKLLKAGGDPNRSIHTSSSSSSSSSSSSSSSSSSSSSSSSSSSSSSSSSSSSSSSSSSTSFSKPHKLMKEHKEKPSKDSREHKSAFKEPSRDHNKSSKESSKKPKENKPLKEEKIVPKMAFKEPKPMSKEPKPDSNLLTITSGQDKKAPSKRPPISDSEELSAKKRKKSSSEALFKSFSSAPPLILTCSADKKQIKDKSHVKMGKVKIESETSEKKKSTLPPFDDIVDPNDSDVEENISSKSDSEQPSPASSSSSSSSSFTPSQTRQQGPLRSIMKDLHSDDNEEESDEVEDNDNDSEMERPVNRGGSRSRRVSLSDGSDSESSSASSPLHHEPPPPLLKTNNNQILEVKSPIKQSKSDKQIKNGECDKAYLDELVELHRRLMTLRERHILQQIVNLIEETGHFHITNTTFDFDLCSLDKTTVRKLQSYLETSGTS
# Vif A3G: inhibitors of Vif binding to APOBEC3G peptide, primary screen, biochemical, TR-FRET, GST-Vif 1-94, biotin-A3G peptide, dose response retest (AID 1117319). TR-FRET GST-Vif / biotin-A3G peptide binding; higher % means a stronger effect; test concentration not given here; strong numbers were not always called active. 260,000 tested, 0.57% active. inhibition, %; hits with a dose series show IC50 in µM;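 active means above the screen mean plus three standard deviations and confirmed in dose response; inconclusive means results disagree or hit not tested in dose response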;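 further: Vif residues 1-94 fused to GST binding biotinylated APOBEC3G peptide 110-148; 0% = full assay without inhibitor and 100% = GST in place of GST-Vif; retest series ran down from 100 µM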
# Bfl-1 A1 inh: inhibitors of the anti-apoptotic protein A1, read as caspase activation; 330,000 tested, 0.066% active; caspase activation, % (concentration not given with the values); MEF A1-2A-BIM cells, Caspase-Glo 3/7 luminescence, 3 h; percent of clofoctol response, vehicle zero;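 active means over half of replicate activation scores above 10%, or exactly half above 10 with the replicate mean above 10; inconclusive means replicate mean below 10 yet half the replicates above 10; inactive means over half of replicates below 10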;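 further: wells of about 30 µL received 50 nL stock; many hits fall short of the cut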
# LANA-H2B inh: blocks KSHV LANA binding to histone H2A/H2B; Q9QR71; cell-free LANA-H2A/H2B peptide, fluorescence polarization; inhibition, % (no concentration beside the values); 320,000 tested, 0.6% active; in the data active means inhibition mostly above about 10%, no sharp cut-off; inactive means mostly below about 6.7%;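 further: stock transfer was 7.5 nL into about 10 µL; 0% = median of vehicle wells and 100% = median of positive control wells; one replicate is shown; the record names a cut of 25% in any replicate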
# Calb FLC: C. albicans growth modulation with fluconazole; C. albicans CaCi-2 (fluconazole-resistant clinical isolate) + fluconazole, Alamar Blue growth, 48 h; growth inhibition, % (test concentration not listed); 300,000 tested, 0.57% active;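 active means most replicates above 75%; inconclusive means exactly half above 75%; inactive means most below 75%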;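 further: all wells also contain fluconazole at 8 µg/ml as a sub-toxic cotreatment; 0% = median of DMSO wells and 100% = median of geldanamycin control wells; wells of about 8 µL received 7.5 nL stock; the first replicate is given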
# The depositor's hits bear a star; ? = inconclusive; . = not tested or not shown; & = joins results of further samples. Rows are unselected; any-hit rate near 4.3%.
# Each structure is followed by: RanGTP-Impb inh	T cruzi repl	Beta apoptosis	MLL AF4-AF9 inh	Vif A3G	Bfl-1 A1 inh	LANA-H2B inh	Calb FLC
Cc1oc2c(O)c(O)ccc2c(=O)c1-c1ccccc1
→ -4.5	-9	0	-1.0	.	0.0	0.3&18	2
COc1nc(OCC#N)nc(N2CCCCC2)n1
→ 0.8	11	-7	-0.5	-8%	-0.5	1.3	-2
Cc1ccc(OCC(=O)NNC(=S)NC(=O)c2ccc(Br)o2)c(C)c1
→ 11	-8	2	-1.3	-2%	1.0	4.5	-14
O=C(NC1C(=O)NNC1c1ccccc1)c1ccc(F)cc1 (stereo not given)
→ -0.6	-17	1	.	-4%	0.2	2.0	.
CCOC(=O)c1c(C)[nH]c(C(=O)COC(=O)C2=NNC(=O)CC2)c1C
→ 3.8	0	-7	-4.1	2%	1.0	4.9	-10
CCOc1ccc(C(Nc2ccc(C)cc2)P2(=O)OCCCO2)cc1 (stereo not given)
→ 10	-5	-2	.	4%	1.0	4.8	-3
O=C(N1CCCC1)C(F)(F)Oc1ccc(F)cc1
→ -2.6	-5	1	-0.2	-7%	1.1	-0.3	-20
CN(C)Cc1ccccc1Sc1ccc(O)cc1O
→ 4.2	-11	-4	.	?	0.6	1.8	-1
Cc1nnc(SCC(=O)Nc2sc3c(c2C#N)CCCC3)[nH]c1=O
→ -0.8	-10	1	.	?	0.2	-3.5	-20
CCOC(=O)c1cnc2c(OC)cccc2c1Oc1ccccc1
→ 0.7	-8	-9	-4.2	2%	1.7	9.2	7
CCCCN(C)CCNC(=O)CN1C(=O)CSc2ccc(S(=O)(=O)N3CCCC3)cc21
→ 2.1	45	-4	-7.9	.	1.1	19*	-12
CC(C)c1ccc(NC(=S)N2CCN(S(=O)(=O)c3ccccc3)CC2)cc1
→ -1.1	-5	-6	1.2	.	1.5	-0.2	-2
Cc1ccc(C)c(C(C)NC(=O)CC#N)c1 (stereo not given)
→ 2.6	-11	-2	-0.6	.	1.6	-1.0	16
S=C1NC2=C(CCC/C2=C\c2ccccc2)C(c2ccccc2)N1 (stereo not given)
→ 4.8	25	-1	.	23%	0.3	1.1	-38
O=C(NNc1nc(=O)c2cccnc2s1)c1ccccc1O
→ -11	-35	41	-3.5	12%	0.2	-3.1	0
COc1ccc(C(=O)COC(=O)C(O)c2ccccc2)c(OC)c1 (stereo not given)
→ .	.	0	-2.2	.	0.4	-6.2	.
COc1cc(C2CC(=O)Oc3c(C(CCN4CCN(c5ccccc5)CC4)c4ccc(N(C)C)cc4)c(OC)cc(OC)c32)cc(OC)c1OC (stereo not given)
→ -1.4	20	0	16	.	0.6	-3.7	-12
Cc1cc(=O)n(CC(C)O)c(O)c1C#N (stereo not given)
→ -3.1	-6	-5	.	6%	0.9	-12	5
CC(=O)N1CCc2cc(N=NC3=C(O)CCCC3=O)ccc21
→ -5.7	-19	-1	2.2	11%	1.6	-5.4	2
O=C(Cn1ccc([N+](=O)[O-])n1)NCc1ccccc1
→ ?	-11	-3	-1.7	.	0.2	-3.6	-13
O=C(COC(=O)c1ccc(Cl)nc1)c1ccc2c(c1)OCCO2
→ 1.3	-11	-6	-1.5	-4%	-2.5	-1.4	-1
Cn1c(CSc2ncccn2)nnc1SCC(=O)N1CCCCCC1
→ -4.4	-10	-7	0.6	?	0.3	2.4	-6
O=C(NCc1ccccc1)c1ccc(Br)cc1Br
→ -0.5	-3	-5	.	.	-0.3	-4.2	-4
CC1=CC(C)(C)N2C(=O)C3(SCC(=O)N3c3ccc(F)cc3)c3cc(C)cc1c32 (stereo not given)
→ -1.7	32	0	.	5%	0.2	-1.1	-7
Cc1ccc(/C=C/C(=O)Nc2cc(S(=O)(=O)N3CCCCCC3)ccc2OCC(F)(F)F)o1
→ -3.1	32	2	.	9%	1.4	-0.3	8
CN(CC(=O)Nc1ccccc1F)S(=O)(=O)c1ccc2c(c1)n(C)c(=O)c(=O)n2C
→ 1.4	-3	-9	6.5	.	-0.1	2.5	5
Clc1ccc(Cn2cc(/C=N/n3cnnc3)c3ccccc32)cc1
→ 7.5	.	-9	.	-5%	1.1	0.7	-1
CC(NC(=S)Nc1ccc(OC(F)F)cc1)c1ccc(F)cc1 (stereo not given)
→ -1.6	9	0	-1.2	-7%	-0.2	0.9	1
COCc1nc(-c2ccc(-c3ccccc3)nc2OC)no1
→ 2.3	-5	4	.	29%	-0.1	-4.1	-5
COc1ccc(C(=O)c2coc3c2C(=O)C(=O)c2ccccc2-3)cc1
→ 6.2	-9	5	6.0	25%	-0.3	-6.0	45
CCCOc1ccc(C(=O)NCCC(=O)NCCCC(=O)O)cc1
→ 1.1	-12	-8	6.2	-6%	1.5	2.2	-7
CC(=O)Nc1ccc(NC(=O)CSc2nccn2Cc2ccco2)cc1
→ -3.1	-4	-4	0.2	3%	0.0	-3.2	0
COc1ccc(CN(C)S(=O)(=O)c2nnc(NC(=O)c3cccc(F)c3)s2)cc1
→ 2.2	-18	5	0.0	.	-1.1	1.3	35
CCOC(=O)/C(C#N)=C/c1c(Oc2cccc(C)c2)nc2c(C)cccn2c1=O
→ -5.6	11	-1	2.6	.	0.6	-1.7	4
Cc1cc(C)c2c(NC(=S)NC(=O)c3ccccc3)nn(C)c2n1
→ 2.9	-17	0	-0.4	-5%	-0.5	-1.3	26
COc1cccc(-c2nc(CS(=O)(=O)CC(=O)NCCCN3CCc4ccccc4C3)c(C)o2)c1
→ 6.1	24	-4	.	-2%&32%	-1.5	1.7	-1
COc1ccc(N2C(=O)CC(N3CCCC4CCCCC43)C2=O)cc1 (stereo not given)
→ 2.3	-5	-5	.	-4%	0.6	4.8	-2
O=C(Nc1ncccc1Cl)c1ccc2c(c1)OCCO2
→ 1.7	-18	0	-0.9	-2%	-6.0	-0.8	13
CC1CN(C(=O)Nc2ccccc2)c2ccccc2-[n+]2ccsc21 (stereo not given)
→ 0.8	0	1	.	.	0.6	.	-8
O=C(CCn1nnc2ccccc2c1=O)N[C@@H](Cc1ccccc1)C(=O)O
→ 3.2	-8	.	.	1%	0.9	2.7	-12
Cc1cc(C)cc(C(=O)NC(CC(N)=O)c2ccc(NC3CCCCC3)c([N+](=O)[O-])c2)c1 (stereo not given)
→ 1.6	-10	-6	.	.	0.2	1.0	-9
c1ccc(C2=Nn3c(nnc3-c3ccncc3)SC2)cc1
→ 1.9	4	-15	.	3%	0.6	1.9	3
COc1ccccc1/C=N/NC(=O)c1csc(C)c1C
→ 0.3	-4	1	-2.1	-7%	0.3	.	-5
CCCCn1c(N)c(N(Cc2ccccc2OC)C(=O)C(C)Oc2ccc(F)cc2)c(=O)[nH]c1=O (stereo not given)
→ -4.5	-6	-8	-12	-2%	0.1	-5.3	.
C=CCn1c(C)cc(C(=O)COC(=O)C2CC(=O)N(Cc3ccccc3)C2)c1C (stereo not given)
→ 1.1	-21	-2	.	74%	-0.3	0.0	.
COc1ccc(/C=C/C(=O)c2ccc[nH]2)c(OC)c1OC
→ -3.3	1	-8	.	-4%	0.1	4.0	-2
COc1ccc(C2/C(=C(/O)c3ccc(C)cc3)C(=O)C(=O)N2CC2CCCO2)cc1OC (stereo not given)
→ 2.2	-8	-3	-3.5	-2%	0.2	7.4	6
Cc1ccc2c(c1)NC(=O)C(CC(=O)NCCCN1CCCC1=O)O2 (stereo not given)
→ 0.0	-9	-4	0.5	1%	0.3	6.4	38
CCCCN(C)Cc1c(C(=O)N2CCc3ccccc3C2)nc2ccc(Cl)cn12
→ 0.6	34	-3	5.2	-6%	-0.3	-2.8	-19
Cc1cc(/C=N/n2cnnc2)c(C)n1-c1ccc(OCc2ccc(F)cc2)cc1
→ -0.1	41	.	.	?	-0.3	-5.2	-17

# Continued.
# Each structure is followed by: RanGTP-Impb inh	T cruzi repl	Beta apoptosis	MLL AF4-AF9 inh	Vif A3G	Bfl-1 A1 inh	LANA-H2B inh	Calb FLC
CN(Cc1ccccc1)C(=S)Nc1ccc2nc3n(c(=O)c2c1)CCCCC3
→ 4.6	0	-1	-5.6	6%	0.4	-1.8	-22
CC(CS(=O)(=O)c1ccccc1[N+](=O)[O-])N1CCOCC1 (stereo not given)
→ 1.7	-23	-13	-2.0	-1%	0.1	0.3	-20
O=C(c1ccco1)N(Cc1ccc2c(c1)OCO2)Cc1cc2cc3c(cc2[nH]c1=O)OCO3
→ -0.4	-2	0	-43	4%	-0.5	7.9	-1
CCOC(=O)Cn1nc(-c2ccc(Cl)cc2)ccc1=O
→ 1.4	-4	-2	.	-3%	-0.1	0.8	25
COCCCNC(=S)N(Cc1cccnc1)Cc1ccc(OC)c(OC)c1
→ 3.1	6	-9	.	.	0.3	-0.9	-7
Cc1ccc(CNC(=S)Nc2cc(C)ccc2OC(F)F)cc1
→ 2.4	-11	-6	-1.0	-5%	0.6	-1.1	-30
COC(=O)c1c(-c2ccc(OC)cc2)sc2ccc(-c3ccc4c(c3)OCO4)cc12
→ .	.	1	2.0	.	-1.1	-1.9	.
Cc1nc(N2CCOCC2)nc(Oc2ccccc2)c1[N+](=O)[O-]
→ 1.8	13	-3	.	6%	0.3	-2.0	0
COC(=O)c1c(N=CN(C)C)c(C#N)c2n1CCCC2
→ 2.3	-2	-9	.	-3%	0.0	1.6	?
COc1cccc(NC(=S)NC(=O)c2cccnc2)c1
→ -3.4	-2	-9	3.2	-7%	-0.5	6.7	8
CCO/N=C(\N)c1[nH]ncc1Br
→ -0.2	-9	-2	-6.8	0%	0.2	1.8	-3
CC(=O)N1N=C(c2cccc([N+](=O)[O-])c2)OC1c1ccc(Br)cc1 (stereo not given)
→ -1.2	-4	-4	8.4	-3%	0.6	0.6	-9
O=C(c1ccc2c(c1)CCN2S(=O)(=O)c1ccccc1)N1CCN(c2ccccc2)CC1
→ -0.7	3	-3	0.4	.	0.6	-0.6	-14
Cc1cccc(NC(=S)NCC2CCCO2)c1 (stereo not given)
→ -2.7	-28	-2	.	0%	0.5	3.6	-2
COc1ccc2c(c1)C(=O)N(c1ccccc1)C(=O)C2
→ 5.3	5	-3	.	-2%	0.1	1.1	3
COc1cc(OC)c(NC2c3ccccc3C(=O)N2c2cc(C)ccn2)cc1Cl (stereo not given)
→ 2.5	13	-5	?	23%	-3.4	-5.5	2
C[C@H](CO)N1C[C@H](C)[C@@H](CN(C)C(=O)Nc2ccc3c(c2)OCO3)Oc2ccc(NS(=O)(=O)c3ccccc3)cc2C1=O
→ .	.	-3	-1.7	.	0.2	-0.1	.
Cn1c(=O)n(Cc2ccccc2)c2ccccc21
→ 1.9	11	-8	-0.2	29%	0.3	-2.9	-4
Fc1ccc(-c2nnc(-c3ccc(F)cc3)o2)cc1
→ -2.9	-7	-6	-0.8	.	-6.7	4.8	-29
Cc1ccc(NC2CCCCC2NS(=O)(=O)c2ccc(Cl)cc2)cc1 (stereo not given)
→ -3.2	5	2	-0.7	.	0.6	2.8	-28
COCCCNCCCOc1ccc(Cl)cc1C(C)(C)C
→ -2.4	46	8	3.3	-9%	0.7	.	18
O=C1CN(CC(=O)NC(=O)NCc2ccccc2)CCN1
→ ?	-4	2	.	4%	-0.3	-1.4	-3
C=CCN1C=C/C(=C\C=C(C#N)C#N)c2ccccc21
→ -6.5	36	24	11	9%	-0.2	-23	11

# High-throughput results: PubChem, several laboratories
